Menin MLL FP FL – qHTS Assay for Inhibitors Targeting the Menin-MLL Interaction in MLL Related Leukemias: Competition With Fluorescein Labeled MLL-derived Peptide | 290,000 tested, under 10 active | Fluorescence polarization, fluorescein-MLL peptide displacement from menin | FP activity change, % at 61.4 µM; inconclusive = falling polarisation curve, or a change in total fluorescence; inactive = total fluorescence flat and polarisation flat or rising; no compound was filed as active; the % refers to the polarisation; negative = inhibition;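 also: % of control where 0% means no effect; inhibitors lower the polarisation; unlabelled MLL peptide was the positive control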
ClpP mod – qHTS Assay for Activators of ClpP. purified B. subtilis ClpP, FRET peptide cleavage, 20 min. 1.9% of 340,000 active. Potency, µM (doses to about 57.5 µM), for the others: at the top dose activity change, negative = active. AID 651965, 2013. ATP-dependent Clp protease proteolytic subunit (Bacillus subtilis (strain 168)), P80244; active = well fitted falling curve with a large enough effect; inconclusive = small, poorly fitted or top-dose-only effect; inactive = no such curve, though single readings can be large or run the other way; also: potency is read from the fitted curve at half-maximal effect; the source files actives as falling curves though it sought activators and does not explain the sign; nearly all actives have a fitted effect of over 65% in size; many hits overshoot -100%
Target sequence (P80244 whole entry, looked up): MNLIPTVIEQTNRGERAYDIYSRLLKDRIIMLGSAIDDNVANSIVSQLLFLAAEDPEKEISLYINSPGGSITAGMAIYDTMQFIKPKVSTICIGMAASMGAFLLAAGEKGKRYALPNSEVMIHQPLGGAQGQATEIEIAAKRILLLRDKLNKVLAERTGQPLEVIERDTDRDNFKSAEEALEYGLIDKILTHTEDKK
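Buffer: 100 mM Tris/HCl pH8, 100 mM KCl, 0.05% low protease BSA, 2.5% glycerol, 0.01% Tween-20. ClpP 10 microg/mL final; 20 min RT; delta FRET normalized to ADEP and DMSO controls.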
gsp antag – qHTS for Antagonists of gsp, the Etiologic Mutation Responsible for Fibrous Dysplasia/McCune-Albright Syndrome: qHTS; gsp-mutant cells, cAMP HTRF, 30 min; control for the full effect not named in the record; Potency, µM (highest dose often 76.9 µM), without a hit: at the highest dose activity change, negative = inhibition, actives largely listed as inhibitors; 0.4% of 340,000 active; AID 624288, 2012; active = falling curve of any shape with a large fitted effect; inconclusive = falling curve, mostly with a smaller effect; inactive = flat or rising curve; cell line not stated here;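 also: intracellular cAMP measured with PDE inhibitor Ro 20-1724 present during compound exposure; potency is read from the fitted curve at half-maximal effect; % is scaled to controls: 0 for no effect and ±100 for the full control effect; nearly all actives have a fitted effect of over 65% in size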
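Cells in G418 medium, seeded 16-24 h, 37C; buffer exchange to DPBS + 1 mM CaCl2, 0.5 mM MgCl2, 0.05% BSA; cpds in DMSO + […] (300 uM stock), 30 min 37C; HTRF cAMP detection.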
Sfp PPTase inh – qHTS Assay for Inhibitors of Bacillus subtilis Sfp phosphopantetheinyl transferase (PPTase); 4'-phosphopantetheinyl transferase ffp (Bacillus subtilis), Q9F4F7; Biochemical Sfp PPTase activity, qHTS; Potency, µM, inactives show max response, negative = inhibition, actives largely listed as inhibitors; 3.5% of 310,000 active; AID 1490, 2009; active = well fitted inhibition curve with a large enough effect; inconclusive = small, poorly fitted or top-dose-only effect, or another doubt; inactive = no such curve, though single readings can be large or run the other way;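 also: the enzyme is Sfp with the accession as filed and its product quenches rhodamine fluorescence; potency is read from the fitted curve at half-maximal effect; 0% = enzyme reaction without inhibitor and -100% = no enzyme wells; top concentration of the series not given in the record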
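Fluorescence-quenching assay: 15 nM Sfp-PPTase preincubated 15 min at room temperature with compound, then 5 uM rhodamine-CoA and 12.5 uM BHQ-2-labelled YbbR peptide added. Fluorescence (ex 525/em 598 nm) read at start and after 30 min; difference gives rate.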
TRPV1 potentiator – HTS Assay for Compounds that Act as Potentiators of the Vanilloid Receptor 1; Transient receptor potential cation channel subfamily V member 1 (Homo sapiens), Q8NER1; TRPV1-expressing cells, Fluo-8 calcium influx, capsaicin EC20 potentiation; host cell line not named in the record; control for the full effect not named in the record; potentiation, % at 8.33 µM; 0.02% of 320,000 active; active means potentiation above 80%; inconclusive means 30% to 80%; inactive means below 30%; also: 0% is about no effect
Target sequence (Q8NER1 whole entry, looked up): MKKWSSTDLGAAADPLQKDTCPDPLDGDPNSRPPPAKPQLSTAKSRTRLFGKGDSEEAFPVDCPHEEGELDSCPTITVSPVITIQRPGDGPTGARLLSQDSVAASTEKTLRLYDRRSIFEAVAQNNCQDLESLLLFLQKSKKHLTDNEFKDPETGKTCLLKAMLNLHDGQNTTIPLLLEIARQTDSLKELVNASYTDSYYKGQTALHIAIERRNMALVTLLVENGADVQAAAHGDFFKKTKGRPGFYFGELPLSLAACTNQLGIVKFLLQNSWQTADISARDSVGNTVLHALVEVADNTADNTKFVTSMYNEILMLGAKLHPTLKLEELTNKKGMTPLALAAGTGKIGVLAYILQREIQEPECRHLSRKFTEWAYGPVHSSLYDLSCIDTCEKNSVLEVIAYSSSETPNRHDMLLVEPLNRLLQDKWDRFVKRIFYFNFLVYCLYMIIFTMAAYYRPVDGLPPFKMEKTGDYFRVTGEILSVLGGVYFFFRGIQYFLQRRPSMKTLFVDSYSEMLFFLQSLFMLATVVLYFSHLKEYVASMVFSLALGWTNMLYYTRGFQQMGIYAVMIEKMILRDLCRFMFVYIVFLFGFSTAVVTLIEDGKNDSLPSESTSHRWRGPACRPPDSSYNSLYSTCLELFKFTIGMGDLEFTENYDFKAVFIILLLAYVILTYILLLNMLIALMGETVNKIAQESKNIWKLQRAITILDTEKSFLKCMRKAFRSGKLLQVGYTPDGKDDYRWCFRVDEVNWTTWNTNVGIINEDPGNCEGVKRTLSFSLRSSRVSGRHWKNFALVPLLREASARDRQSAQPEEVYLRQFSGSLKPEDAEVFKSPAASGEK
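Cells expressing TRPV1 were dye-loaded with Fluo-8 and read kinetically: 10 s baseline, 3 min after compound (agonist portion), then 2 min after EC20 capsaicin (allosteric enhancer portion). Calcium-bound dye fluorescence at 480/520 nm.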
gsp ag – qHTS for Agonist of gsp, the Etiologic Mutation Responsible for Fibrous Dysplasia/McCune-Albright Syndrome: qHTS. Potency, µM (titrated, usually from 76.9 µM), for inactives: at the highest dose activation (cAMP increase), usual class: activators. gsp mutant cells, cAMP HTRF, 30 min; control for the full effect not named in the record. 0.13% of 340,000 active; active = well fitted activation curve with a large enough effect; inconclusive = small, poorly fitted or top-dose-only effect, or another doubt; inactive = no such curve, though single readings can be large or run the other way; cell line not stated here;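 also: phosphodiesterase inhibitor Ro 20-1724 added with compounds to block cAMP breakdown; potency is read from the fitted curve at half-maximal effect; nearly all actives have a fitted effect of over 60% in size; about a fifth of the inactives were tested at one dose only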
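Cells in DMEM/10% FBS with G418 were pretreated with compounds in DMSO plus […] (300 uM stock) for 30 min at 37C. cAMP was measured by HTRF (cAMP-d2 plus anti-cAMP antibody-K) after 30 min at room temperature.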
D2 potentiator – Beta-Arrestin HTS for Positive Allosteric Modulators of the Human D2 Dopamine Receptor: Potentiators; DiscoveRx D2 beta-arrestin cells, luminescence, 90 min; 100% = 57 uM dopamine signal; potentiation, % (concentration not given with the values); 0.23% of 360,000 active; active = potentiation of 50% or more; inconclusive = 30% to 50%; inactive = 30% or less;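 also: compound concentration not given in the record; tested on top of an EC20 dose of dopamine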
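D2 cells co-treated with compound plus 50 nM dopamine (EC20) for 90 min at 37 deg C to detect potentiation. Beta-arrestin recruitment was read as enzyme-fragment luminescence after 1 h at ambient temperature. Full response was set by 57 uM dopamine.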
Active calls of the source: *; ? = inconclusive; · = no result given; [ ] = dose if it differs, or a comment.

SMILES	Menin MLL FP FL	ClpP mod	gsp antag	Sfp PPTase inh	TRPV1 potentiator	gsp ag	D2 potentiator
C#CCOCCOCCOCCNc1nc(N2CCN(C(=O)[C@H](CCCCN)n3cc(C(N)CO)nn3)CC2)nc(N2CCN(C(=O)[C@H](CCC(=O)O)n3cc(C(N)[C@H](C)CC)nn3)CC2)n1 (stereo not given in full)	0.5	·	·	-3%	21	·	·
CCOC(=O)N1CCC(O)(c2cc(C)c(C)cc2C)CC1	2.0	-1.0%	-4%	9%	-11	-33%[inhibitor]	-9
O=C(COC(=O)C1(c2ccc(F)cc2)CCCC1)Nc1ncc(C(F)(F)F)cc1Cl	11	-0.9%	-38%	9%	-5	2%	-8
C[C@@H]1CN([C@@H](C)CO)C(=O)c2cc(C#Cc3cccc(F)c3)cnc2O[C@@H]1CN(C)CC1CCOCC1	·	-17%	·	·	·	?	-8
O=C(O)CCc1ccc(S(=O)(=O)N2CCOCC2)cc1	-0.5	0.0%	9%	15%	-3	11%	-7
CC(=O)NC(Cc1cccc(F)c1)C(=O)NC1CCN(C(=O)c2cccc(C)c2)CC1 (stereo not given)	-15	1.1%	6%	20%	-13	4%	-9
CCCCC(=O)NC(Nc1sc2c(c1C(N)=O)CCCC2)(C(=O)OCC)C(F)(F)F (stereo not given)	2.0	?	5%	-4%	1	-21%	12
CCc1cccc2[nH]c3cc([N+](=O)[O-])ccc3c12	-4.5	·	0%	4%	3	?	-4
COc1cccc(NC(=O)COC(=O)c2sccc2C)c1	·	?	-2%	·	·	6%[15.4 µM]	-9
COc1ccc(-c2noc(CCC(=O)Nc3cccc(C(=O)NC4CC4)c3)n2)cc1OC	·	-2.0%	·	·	·	-33%[inhibitor]	-6
Cc1ccccc1C(=O)NC1CCCN(Cc2ccccc2F)C1 (stereo not given)	-4.6	0.7%	5%	20%	1	1%	-29
CCN(CC(=O)NCc1cccs1)C(=O)CCCOc1ccccc1	·	0.5%	-1%	·	-10	?	-1
Cn1c(NC(=O)c2ccccc2C(F)(F)F)cc(=O)n(C)c1=O	0.6	-0.8%	5%	15%	2	-36%[inhibitor]	-9
C=CCNC(=S)NNc1nc2c(c(=O)[nH]1)C1(CCCCC1)Cc1ccccc1-2	-1.5	-24%	-12%	?	7	-106%[inhibitor]	3
CC(Nc1cc(N2CCCC2)ccc1[N+](=O)[O-])c1ccccc1 (stereo not given)	-2.2	-0.8%	0%	19%	-3	1%	-5
O=C1C(CCCNC(=S)NCc2ccccc2)NC(=S)N1Cc1ccccc1 (stereo not given)	-0.5	0.3%	-10%	6%	16	-1%	-12
CCn1nc(C)c(CNC(=O)C2CCC(=O)N(CCc3ccc(OC)cc3)C2)c1C (stereo not given)	-0.4	-1.4%	11%	10%	-1	25%	-5
Cc1ccccc1COc1ccc(/C(O)=C2/C(=O)C(=O)N(CCCn3ccnc3)C2c2ccco2)cc1 (stereo not given)	2.5	-1.1%	10%	?	-2	?	-2
COCCNC(=O)c1ccc(N2CC3CC(C2)c2cccc(=O)n2C3)c(NC(=O)c2ccccc2Cl)c1 (stereo not given)	·	0.2%	·	·	·	4%	-2
Cc1noc(C)c1C(=O)Nc1sc(C)c(-c2ccccc2)c1C#N	0.6	2.5%	3%	-17%	10	-61%	-4
CC1Cc2cc(S(=O)(=O)N3CCC(C(=O)N(C)Cc4ccco4)CC3)ccc2N1C(=O)C1CCC1 (stereo not given)	6.2	1.2%	2%	9%	-1	6%	-4
O=C(c1cccc(NS(=O)(=O)c2ccccc2)c1)N1CCCCC1	·	·	2%	·	?	-9%[15.4 µM]	-3
O=C(CN1C(=O)NC2(CCc3ccccc3C2)C1=O)Nc1ccc(F)cc1 (stereo not given)	-3.6	-0.7%	9%	4%	-4	2%	-6
O=C(CNc1ccc(F)cc1)N/N=C1\CCCc2ccccc21	3.0	·	-3%	10%	-3	0%[15.4 µM]	-10
CCOc1ccc(CCNC(=O)c2cnccn2)cc1OCC	5.4	0.2%	-14%	9%	1	-4%[15.4 µM]	-3
CCOC(=O)C(NC(=O)c1ccccc1)(OCC1(CC)COC1)C(F)(F)F (stereo not given)	-0.4	0.6%	12%	16%	20	4%	-8
CCN1C(=O)[C@H]2[C@@H](c3ccc(C(F)(F)F)cc3)N[C@]3(CCCN(Cc4ccc(C)cc4)C3=O)[C@H]2C1=O	·	1.1%	·	·	·	-34%[inhibitor]	4
CCN(CCO)Cc1cn[nH]c1-c1ccc(C)c(C)c1	-1.1	1.2%	-8%	-7%	4	-38%[inhibitor]	-8
COc1cc(-c2nc3n(n2)C(c2ccncc2)C2=C(CCCC2=O)N3)cc(OC)c1OC (stereo not given)	0.3	·	-20%	7%	3	31%[15.4 µM]	-6
O=C(c1ccc(-c2ccccc2)c(F)c1)C1CCCN(C(=O)c2cncs2)C1 (stereo not given)	-6.3	·	-26%	-15%	-5	2%[15.4 µM]	-7
CCOC(=O)Cn1nc(C)c2c1CCCC2=O	6.9	-1.0%	15%	4%	9	-21%	7
O=C(COC(=O)c1ccc2c(c1)OCCO2)NCCc1ccccc1	·	-4.4%	?	·	·	-2%	-8
O=C(Nc1nc(-c2ccncc2)cs1)C1c2ccccc2Oc2ccccc21	10.0	-4.1%	-30%	-13%	15	-17%	-14
COc1cccc(C2c3[nH]c4ccccc4c3C[C@H]3C(=O)N(C4CC4)CC(=O)N23)c1 (stereo not given in full)	7.8	-2.2%	-1%	4%	10	-9%	-3
O=C(CN1C(=O)CCC1=O)Nc1nc(-c2ccc3ccccc3c2)cs1	3.7	-3.1%	-14%	8%	-3	0%	-1
Nc1ncnc2c1ncn2[C@@H]1O[C@H](CO)[C@@H](O)[C@@H]1O	·	1.5%	-7%	·	·	·	-8
O=C(Nc1nc(=O)[nH]s1)c1ccccc1	3.2	·	3%	-4%	1	0%[15.4 µM]	-4
COc1cc(OC)cc(-c2oc(=O)c3cc(OC)c(OC)cc3c2/C=C/c2ccc(F)cc2)c1	·	?	-10%	·	8	·	1
Cc1ccc(S(=O)(=O)N(C)C)cc1NC(=O)COC(=O)C1CC(=O)N(c2ccc3c(c2)OCCO3)C1 (stereo not given)	·	-1.7%	6%	·	3	?	-27
NC(=O)NC(CC(=O)NCCCc1ccccc1)c1ccccc1Cl (stereo not given)	-4.7	-0.3%	11%	5%	6	-3%[15.4 µM]	-17
Cc1c(C(=O)N2CCCC2)sc(NC(=O)c2cccc(Cl)c2)c1C#N	?	-1.7%	?	6%	6	23%	-11
C/C(=N/NC(=O)c1cc(-c2cccc([N+](=O)[O-])c2)n[nH]1)c1cccc(O)c1	4.6	-2.9%	-3%	6%	?	12%	-9
CC(=O)Nc1ccc(OCc2cnc(Cl)s2)cc1	1.2	·	3%	-6%	5	3%[15.4 µM]	-12
O=c1ccnc(SCCc2ccccc2)[nH]1	-3.8	-0.1%	-2%	15%	3	-1%	-2
CCOc1ccc(N/C=C/C(=O)c2ccc(OC)c(OC)c2)cc1	4.3	0.1%	3%	11%	13	-9%	-2
COc1ccccc1OC(C)C(=O)Nc1ccccc1C(=O)NCc1cccnc1 (stereo not given)	0.6	·	2%	2%	9	-5%[15.4 µM]	-7
O=C(Nc1c(F)cc(F)cc1Br)c1cc2nc(C(F)F)cc(C(F)F)n2n1	-1.1	85%	-3%	-12%	3	-11%	-9
CCCCNC(=O)CCCn1c(=S)[nH]c2cc3c(cc2c1=O)OCO3	6.3	-0.9%	8%	18%	-3	0%	-7
CC1(C)CC(NC(=S)NC(=O)c2cc(Br)ccc2Cl)CC(C)(C)N1	·	-1.1%	6%	·	-2	-31%[inhibitor]	-10
Cc1ncc(CN2CCCC(C(=O)Nc3ccc(-c4cccc(F)c4)cc3)C2)cn1 (stereo not given)	-0.9	0.4%	-14%	3%	-19	?	-5
Cc1c(C(=O)N2CCCCC2)c(S(=O)(=O)N(C)Cc2ccco2)c(C)n1C	-0.5	3.1%	-8%	17%	0	-17%	4
Cc1nc(Nc2nc(-c3ccccc3)cc(=O)[nH]2)nc2ccccc12	·	-0.2%	20%	·	·	-2%[15.4 µM]	-2
COc1cccc(NC(=O)COC(=O)C2CC2)c1	·	-2.4%	3%	·	·	23%	-9
NNC(=O)CN1C(c2cccc(Cl)c2)=Nc2ccc(Br)cc2C1c1ccccc1 (stereo not given)	4.1	-5.8%	0%	14%	1	-4%	-42
O=C(CSc1nnc(Cc2ccc3c(c2)OCO3)n1C1CCCCC1)NC1CCCC1	-5.0	0.5%	6%	3%	5	-11%	-7
CC(C)(C)c1ccc(S(=O)(=O)O/N=C2/CCCCC2c2ccc([N+](=O)[O-])cc2[N+](=O)[O-])cc1 (stereo not given)	-2.0	-1.6%	-1%	-2%	-7	0%	21
CCCN(C(=O)Cc1ccc(S(=O)(=O)N2CCOCC2)s1)c1c(N)n(Cc2ccccc2)c(=O)[nH]c1=O	·	-3.7%	-9%	·	·	12%[15.4 µM]	-13
COc1cccc(S(=O)(=O)Nc2cccc(C(=O)N3CCCCCC3)c2)c1	2.7	-2.0%	-3%	0%	13	-5%	-9
COc1ccc(C(=O)COC(=O)CCCn2c(=O)oc3ccccc32)cc1	1.4	0.9%	-17%	-3%	-17	25%	-13

A different layout for some results above:
smiles: Cc1c(C(=O)N2CCCC2)sc(NC(=O)c2cccc(Cl)c2)c1C#N
  Menin MLL FP FL: ?	ClpP mod: -1.7%	gsp antag: ?	Sfp PPTase inh: 6%	TRPV1 potentiator: 6	gsp ag: 23%	D2 potentiator: -11

smiles: C/C(=N/NC(=O)c1cc(-c2cccc([N+](=O)[O-])c2)n[nH]1)c1cccc(O)c1
  Menin MLL FP FL: 4.6	ClpP mod: -2.9%	gsp antag: -3%	Sfp PPTase inh: 6%	TRPV1 potentiator: ?	gsp ag: 12%	D2 potentiator: -9

Assay outcomes from PubChem BioAssay.
